# Vaccinia inh: blocks a specific stage of Vaccinia orthopoxvirus infection, primary screen, cell-based, single point | activity change (mCherry), % (concentration not given with the values) | Vaccinia-infected cells, mCherry/Venus stage reporter fluorescence; hits give low values; some inactives read as strong as hits | 89,000 compounds, 0.01% hits;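 active = mCherry past -33% and 40 or more points under the early reporter, replicates agreeing; inconclusive = past -33% without that gap or agreement; tested in A549 cells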;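 note: scaled between vehicle wells and reference inhibitor wells; 23 nL library stock went into each well; one replicate is shown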
# Vaccinia inh Venus: second read-out of Vaccinia inh, no call of its own (marks repeat the call); activity change (Venus), %; measured here: Venus reporter, other viral stage;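 negative = less Venus signal; first of two replicates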
# Numbers without * were called inactive; ? = inconclusive; . = no result given; & = joins results of further samples. The list is partial, so the mix of outcomes need not match the whole.
SMILES,Vaccinia inh,Vaccinia inh Venus
O=C(C1CC1)N1CCCCN2[C@H](CO)[C@@H](c3ccc(C#CC4(O)CCCC4)cc3)[C@@H]2C1,19,13
C[C@H]1CN([C@@H](C)CO)C(=O)c2cc(NC(=O)Nc3cccc4ccccc34)ccc2O[C@@H]1CN(C)C,5,6
O=C(Cc1cccnc1)N[C@@H]1CC[C@H](CCNS(=O)(=O)c2ccccc2Cl)O[C@@H]1CO,10,4
COc1ccc(S(=O)(=O)Nc2ccc3c(c2)C(=O)N([C@@H](C)CO)C[C@@H](C)[C@@H](CN(C)C(=O)Nc2ccc4c(c2)OCO4)OCCCC[C@@H](C)O3)cc1,-11,-8
CCC(=O)Nc1ccc2c(c1)C(=O)N(C)C[C@H](OC)[C@H](C)CN(CCc1ccccc1)[C@@H](C)CO2,6,1
O=C(c1cccc(F)c1)N1CC(=O)N2[C@@H](CO)[C@@H](c3ccc(C4=CCCC4)cc3)[C@@H]2C1,-3,3
C[C@@H]1CN([C@@H](C)CO)C(=O)Cc2cc(NC(=O)Nc3ccccc3)ccc2O[C@H]1CN(C)C(=O)NC1CCCCC1,1,0
CN(C)C(=O)C[C@@H]1CC[C@H](NC(=O)C2CC2)[C@H](CO)O1,-5,-1
COc1ccc(CN(C)C[C@@H]2Oc3ccc(NC(=O)Nc4ccccc4)cc3C(=O)N([C@H](C)CO)C[C@H]2C)cc1,-15,5
C[C@@H]1CN([C@@H](C)CO)C(=O)c2cc(NS(=O)(=O)c3cn(C)cn3)ccc2O[C@@H](C)CCCCO[C@@H]1CN(C)Cc1ccncc1,6,3
O=C(NCC[C@@H]1CC[C@@H](NC(=O)c2ccccc2F)[C@H](CO)O1)c1ccc2c(c1)OCO2,4,0
O=C(NCC1CC1)[C@H]1[C@H](CO)[C@H]2Cn3c(ccc(-c4ccncc4)c3=O)[C@@H]1N2Cc1nccs1,1,1
O=C(C1CCCC1)N1[C@@H](CO)[C@@H](c2ccccc2)C12CN(Cc1ccc(F)cc1)C2,8,6
C[C@@H]1CN([C@@H](C)CO)C(=O)c2cc(NC(=O)CCC(F)(F)F)ccc2O[C@H]1CN(C)S(C)(=O)=O,12,2
C[C@@H]1CN([C@H](C)CO)C(=O)c2cccc(NS(=O)(=O)c3ccc(Cl)cc3)c2O[C@@H]1CN(C)Cc1ccc(C(=O)Nc2ccccc2N)cc1,-27,-14
O=C(Nc1ccccc1)N1C[C@@H]2[C@H](c3ccccc31)[C@@H](CO)N2Cc1ccccc1Cl,-35,-28
COc1ccc(NC(=O)N(C)C[C@H]2Oc3ccc(NC(=O)CCCCCC(=O)Nc4ccccc4N)cc3CC(=O)N([C@@H](C)CO)C[C@H]2C)cc1,-6,-5
O=C(C[C@H]1CC[C@H]2[C@@H](COC[C@H](O)CN2C(=O)c2ccccc2)O1)N1CCOCC1,15,11
Cc1noc(C)c1NC(=O)N(C)C[C@H]1Oc2c(NC(=O)Nc3ccc(C(F)(F)F)cc3)cccc2C(=O)N([C@@H](C)CO)C[C@H]1C,-20,-19
C[C@@H]1CN([C@H](C)CO)C(=O)Cc2cc(NS(=O)(=O)c3ccccc3)ccc2O[C@@H]1CN(C)S(=O)(=O)c1ccccc1,11,11
NC(=O)C1=C[C@@H](c2csc3ccccc23)C[C@@H](OCCCCO)O1,22,23
C[C@H]1CN([C@@H](C)CO)C(=O)Cc2cc(NC(=O)Cn3cnnn3)ccc2O[C@H]1CN(C)CC1CCCCC1,-8,-9
Cc1noc(C)c1NC(=O)Nc1ccc2c(c1)C(=O)N([C@H](C)CO)C[C@H](C)[C@@H](CN(C)C(=O)Nc1ccc3c(c1)OCO3)OCCCC[C@@H](C)O2,16,1
CCC(=O)N(C)C[C@H]1Oc2cc(-c3cccc(OC)c3)ccc2S(=O)(=O)N([C@@H](C)CO)C[C@@H]1C,14,10
CCC(=O)N1C[C@@H](C)[C@H](OC)CN(C)C(=O)c2cc(NC(=O)C3CC3)ccc2OC[C@H]1C,1,-16

# One compound at a time, as listed above.
# Listed for C[C@@H]1CN([C@@H](C)CO)C(=O)c2cc(NS(=O)(=O)c3cn(C)cn3)ccc2O[C@@H](C)CCCCO[C@@H]1CN(C)Cc1ccncc1 → Vaccinia inh: 6; Vaccinia inh Venus: 3
# Listed for C[C@H]1CN([C@@H](C)CO)C(=O)Cc2cc(NC(=O)Cn3cnnn3)ccc2O[C@H]1CN(C)CC1CCCCC1 → Vaccinia inh: -8; Vaccinia inh Venus: -9
# Listed for O=C(Nc1ccccc1)N1C[C@@H]2[C@H](c3ccccc31)[C@@H](CO)N2Cc1ccccc1Cl → Vaccinia inh: -35; Vaccinia inh Venus: -28

# Additional compounds.
SMILES,Vaccinia inh,Vaccinia inh Venus
C/C=C/c1ccc([C@H]2[C@H](CO)N3CCCCN(S(=O)(=O)c4cccc(C)c4)C[C@@H]23)cc1,-14,-14
C[C@@H]1CN([C@@H](C)CO)C(=O)c2cccc(NC(=O)CCCCCC(=O)Nc3ccccc3N)c2O[C@@H]1CN(C)C(=O)Nc1cccc2ccccc12,14,15
COc1ccc2c3c([nH]c2c1)[C@H](CO)N(C(C)=O)CC31CN(Cc2ccccc2Cl)C1,?,.
C[C@@H]1CN([C@@H](C)CO)C(=O)Cc2cc(N(C)C)ccc2O[C@@H]1CN(C)Cc1ccc(C(F)(F)F)cc1,?,.
OC[C@@H]1[C@@H](c2ccc(C#Cc3ccccc3F)cc2)[C@@H]2CN(CC3CCOCC3)CCCCN12,?,.
COCC(=O)N(C)C[C@@H]1Oc2ncc(C#Cc3ccncc3)cc2C(=O)N([C@@H](C)CO)C[C@@H]1C,18,10
CO[C@@H]1CC[C@@H]2CCOc3c(C#N)cccc3C(=O)N(C)C[C@@H](c3ccccc3)CC(=O)N(C)C[C@H]1O2,6,0
COc1cccc(NC(=O)C[C@@H]2CC[C@@H]3[C@H](COc4ccc(NC(=O)C5CCC5)cc4C(=O)N3C)O2)c1,8,-3
O=C(NC1CCCCC1)[C@@H]1[C@@H](CO)[C@@H]2Cn3c(cccc3=O)[C@@H]2N1C(=O)CC1CC1,6,14
COc1ccc(S(=O)(=O)N2C[C@@H](O)COC[C@@H]3O[C@@H](CC(=O)NCc4ccc(Cl)c(Cl)c4)CC[C@H]32)cc1,-26,-22
O=C(C1CCCC1)N1CCCCN2[C@H](CO)[C@@H](c3ccc(-c4ccncc4)cc3)[C@H]2C1,10,5
C[C@@H]1CN([C@H](C)CO)C(=O)c2cc(NS(=O)(=O)c3cccs3)ccc2O[C@@H](C)CCCCO[C@@H]1CN(C)Cc1ccc(Cl)c(Cl)c1,?,.
Cc1ccc(S(=O)(=O)N(C)C[C@@H]2Oc3ccc(NC(=O)CCN4CCOCC4)cc3C(=O)N([C@H](C)CO)C[C@@H]2C)cc1,-3,-5
CC(C)C#Cc1ccc2c(c1)O[C@H](CN(C)C(=O)C1CC1)[C@H](C)CN([C@@H](C)CO)S2(=O)=O,-3,-8
O=C(C[C@H]1CC[C@H](NC(=O)CN2CCOCC2)[C@@H](CO)O1)NCCc1ccncc1,12,20
Cc1ccc(S(=O)(=O)Nc2ccc3c(c2)C(=O)N([C@@H](C)CO)C[C@H](C)[C@@H](CN(C)C(=O)CCC(F)(F)F)OCCCC[C@@H](C)O3)cc1,-29,-37
C[C@@H]1CN([C@H](C)CO)C(=O)c2cccc(NC(=O)Nc3ccccc3)c2O[C@H]1CN(C)C,16,17
COCC(=O)N(C[C@@H]1N[C@H](CO)[C@H]1c1ccc(-c2cccnc2)cc1)C(C)C,-1,2
Cc1cc(C(=O)Nc2cccc3c2O[C@@H](CN(C)S(=O)(=O)c2ccc(Cl)cc2)[C@H](C)CN([C@H](C)CO)C3=O)n(C)n1,23,12
CCCNC(=O)N1C[C@@H](O)COC[C@H]2O[C@@H](CC(=O)N[C@@H]3CCN(Cc4ccccc4)C3)CC[C@@H]21,-6,2
Cc1ccccc1-c1ccc([C@H]2[C@@H](CO)N3CCCCN(C(=O)Cc4ccccn4)C[C@@H]23)cc1,-9,-12
CCCN(C)C[C@@H]1Oc2cc(C#CC3CC3)ccc2S(=O)(=O)N([C@@H](C)CO)C[C@@H]1C,-21,-16
O=C(Nc1ccc(F)cc1)N1[C@@H]2CNC[C@H]1C2c1ccc(/C=C/c2ccccc2)cc1 (stereo partly drawn),-9&1,-5&14
C[C@@H]1CN([C@@H](C)CO)C(=O)Cc2cc(NC(=O)Nc3ccc(F)cc3)ccc2O[C@H]1CN(C)Cc1ccc(-c2ccccc2)cc1,-8,-6
COCC(=O)N1CC(=O)N2[C@H](CO)[C@H](c3ccc(C#CCc4ccccc4)cc3)[C@@H]2C1,40,1

# More compounds:
SMILES,Vaccinia inh,Vaccinia inh Venus
C/C=C/c1ccc2c(c1)O[C@@H](CN(C)Cc1ccc(F)cc1)[C@H](C)CN([C@@H](C)CO)S2(=O)=O,?,.
Cc1noc(C)c1S(=O)(=O)Nc1ccc2c(c1)C(=O)N([C@H](C)CO)C[C@@H](C)[C@H](CN(C)S(=O)(=O)c1ccccc1)O2,8,5
C[C@@H]1CN([C@H](C)CO)C(=O)c2cccc(NC(=O)C3CC3)c2O[C@H]1CN(C)S(=O)(=O)c1ccc(F)cc1,17,8
C[C@H](CO)N1C[C@H](C)[C@H](CN(C)C)Oc2ccc(NS(=O)(=O)c3ccc(F)cc3)cc2C1=O,12,10
C[C@@H]1CN([C@@H](C)CO)S(=O)(=O)c2ccc(/C=C/c3ccccc3)cc2O[C@@H]1CN(C)CC1CC1,?,.
C[C@@H]1CN([C@@H](C)CO)C(=O)CCCn2nncc2CO[C@@H]1CN(C)C(=O)Nc1ccccc1C(F)(F)F,7,10
COc1ccc(NC(=O)Nc2cccc3c2O[C@@H](CN(C)C(=O)Nc2c(C)noc2C)[C@H](C)CN([C@@H](C)CO)C3=O)cc1,11,11
C[C@@H]1CCCCO[C@@H](CN(C)C(=O)Nc2ccccc2)[C@@H](C)CN([C@H](C)CO)C(=O)c2cc(NC(=O)CCC(F)(F)F)ccc2O1,21,13
CO[C@H]1CN(C)C(=O)c2cc(NC(=O)Nc3cccc(F)c3)ccc2OC[C@H](C)NC[C@H]1C,-23,-10
C[C@@H]1CN([C@@H](C)CO)S(=O)(=O)c2ccc(C3=CCCC3)cc2O[C@@H]1CN(C)C(=O)C1CCC1,-10,1
CNC[C@H]1Oc2cc(C#Cc3ccncc3)ccc2S(=O)(=O)N([C@H](C)CO)C[C@H]1C,-10,-1
COc1ccccc1C#Cc1cnc2c(c1)C(=O)N([C@@H](C)CO)C[C@H](C)[C@@H](CN(C)C)O2,-15,-17
C[C@@H]1CN([C@@H](C)CO)C(=O)c2cc(NC(=O)C3CCCCC3)ccc2O[C@@H]1CN(C)CC1CC1,-7,-7
C[C@H](CO)N1C[C@H](C)[C@@H](CN(C)S(=O)(=O)c2ccc(Cl)cc2)Oc2c(NS(=O)(=O)c3ccc(F)cc3)cccc2C1=O,15,9
O=C(c1ccccc1F)N1C[C@H]2[C@@H](c3ccccc31)[C@H](CO)N2Cc1ccc2c(c1)OCO2,-10,-9
C[C@H]1CN([C@@H](C)CO)C(=O)c2cc(/C=C/c3ccccc3)cnc2O[C@@H]1CN(C)C(=O)c1ccncc1,15,12
CCCNC(=O)N1CC(=O)N2[C@H](CO)[C@@H](c3ccc(C#CCC4CCCC4)cc3)[C@H]2C1,?,.
C[C@@H]1CCCCO[C@@H](CN(C)S(C)(=O)=O)[C@@H](C)CN([C@H](C)CO)C(=O)c2cc(NC(=O)Nc3ccc4c(c3)OCO4)ccc2O1,18,12
C[C@@H]1CN([C@H](C)CO)C(=O)c2cccc(NS(=O)(=O)c3ccc(Cl)cc3)c2O[C@H]1CN(C)Cc1ccc(C(=O)O)cc1,24,18
C[C@@H]1CN([C@H](C)CO)C(=O)c2cc(NC(=O)c3ccccc3)ccc2O[C@@H](C)CCCCO[C@H]1CN(C)C(=O)Nc1ccc(F)cc1,-26,-22
C[C@@H]1CCCCO[C@@H](CN(C)C(=O)c2ccccc2)[C@H](C)CN([C@H](C)CO)C(=O)c2cc(NS(=O)(=O)c3ccc(F)cc3)ccc2O1,-25,-23
COc1ccc2c3c([nH]c2c1)[C@@H](CO)N(C(C)=O)CC31CCN(C(=O)Nc2ccccc2F)CC1,-11,-13
CC(C)NC(=O)Nc1cccc2c1O[C@H](CN(C)S(=O)(=O)c1cn(C)cn1)[C@@H](C)CN([C@@H](C)CO)C2=O,6,4
Cc1ccc(S(=O)(=O)Nc2ccc3c(c2)CC(=O)N([C@H](C)CO)C[C@@H](C)[C@H](CN(C)S(=O)(=O)c2ccc(C)cc2)O3)cc1,5,0
COc1ccc(CN(C)C[C@H]2Oc3c(NC(=O)Nc4ccc(C(F)(F)F)cc4)cccc3C(=O)N([C@@H](C)CO)C[C@@H]2C)cc1,-34,-29
CCNC(=O)C[C@H]1CC[C@H]2[C@H](COc3ccc(NC(=O)c4cscn4)cc3C(=O)N2C)O1,0,0
COc1ccc(NC(=O)N(C)C[C@@H]2Oc3ccc(NC(=O)Nc4ccc(F)cc4)cc3C(=O)N([C@H](C)CO)C[C@H]2C)cc1,18,11
CO[C@@H]1CN(C)C(=O)c2ccc(NC(=O)c3ccccc3)cc2OC[C@H](C)N(CC2CC2)C[C@H]1C,-7,-7

# Laid out differently: entries from further up.
structure	Vaccinia inh	Vaccinia inh Venus
Cc1ccc(S(=O)(=O)Nc2ccc3c(c2)CC(=O)N([C@H](C)CO)C[C@@H](C)[C@H](CN(C)S(=O)(=O)c2ccc(C)cc2)O3)cc1	5	0
Cc1noc(C)c1S(=O)(=O)Nc1ccc2c(c1)C(=O)N([C@H](C)CO)C[C@@H](C)[C@H](CN(C)S(=O)(=O)c1ccccc1)O2	8	5
CCCNC(=O)N1CC(=O)N2[C@H](CO)[C@@H](c3ccc(C#CCC4CCCC4)cc3)[C@H]2C1	?	.

# Screens (PubChem BioAssay)
